Screening data as filed in PubChem BioAssay.
mut p53 SMM: binders of human mutant p53, primary screen, biochemical, small molecule microarray, anti-GST fluorescence | mutant tumor protein p53 (GST-tagged), Homo sapiens | small molecule microarray binding | calls only | 17,000 compounds, 0.4% hits | AID 624136, 2012;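 active means compounds whose four printed spots each glow above background more than chance allows, each with a p-value under 7%; compounds were printed on slides so no solution concentration is given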;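 further: about 2 pmol printed per array spot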
STAT3 binder: STAT3 binders, primary screen, biochemical, small molecule microarray, single point, set 2 | AID 624138, 2012 | Signal transducer and activator of transcription 3 (Homo sapiens), P40763 | His-STAT3 binding, anti-His fluorescence | 17,000 compounds, 0.2% hits | calls only;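 active means compounds whose four printed spots each show fluorescence over background unusually high for their array block, chance value under 7%; compounds were printed on slides so no solution concentration is given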;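 further: about 2 pmol printed per array spot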
c-Myc SMM: binders of human c-Myc, primary screen, biochemical, small molecule microarray, anti-His fluorescence; Myc proto-oncogene protein (Homo sapiens), P01106; His-c-Myc binding; calls only; 17,000 compounds, 1.5% hits;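 active means spot fluorescence over background with P-value below 7% in all four replicate spots, showing protein binding; compounds were printed on slides so no solution concentration is given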;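 further: score is binary with 100 for all four spots passing and 0 otherwise; about 2 pmol printed per array spot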
Target sequence (P01106 whole entry, looked up): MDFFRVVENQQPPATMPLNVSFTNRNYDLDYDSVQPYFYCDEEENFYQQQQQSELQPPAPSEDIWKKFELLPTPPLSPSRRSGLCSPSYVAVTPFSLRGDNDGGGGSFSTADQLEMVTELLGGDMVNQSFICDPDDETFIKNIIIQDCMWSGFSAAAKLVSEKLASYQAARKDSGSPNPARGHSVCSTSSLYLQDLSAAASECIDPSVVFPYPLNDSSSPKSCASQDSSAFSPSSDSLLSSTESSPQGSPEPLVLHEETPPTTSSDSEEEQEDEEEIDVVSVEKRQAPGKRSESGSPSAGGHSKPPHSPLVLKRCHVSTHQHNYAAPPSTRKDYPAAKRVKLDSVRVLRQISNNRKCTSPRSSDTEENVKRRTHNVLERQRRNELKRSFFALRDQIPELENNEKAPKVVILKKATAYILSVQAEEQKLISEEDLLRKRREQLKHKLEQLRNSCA
ID4 binder: binders of human ID4 protein, primary screen, biochemical, small molecule microarray, single point; Flag-ID4 binding, fluorescence F/B; DNA-binding protein inhibitor ID-4 (Homo sapiens), P47928; AID 624137, 2012; 31,000 compounds, 1.2% hits; calls only;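 active means spot signal over background at p below 0.07 in all four prints; compounds were printed on slides so no solution concentration is given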;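 further: a binder raises fluorescence above local background on the spot; about 2 pmol printed per array spot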
Target sequence (P47928 whole entry, looked up): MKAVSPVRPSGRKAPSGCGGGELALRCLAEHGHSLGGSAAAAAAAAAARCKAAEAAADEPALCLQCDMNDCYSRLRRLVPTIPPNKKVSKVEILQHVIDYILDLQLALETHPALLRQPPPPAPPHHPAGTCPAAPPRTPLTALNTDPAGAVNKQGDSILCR
Calls only; i = inactive; / = not tested or not shown; + = active, no number.

SMILES	mut p53 SMM	STAT3 binder	c-Myc SMM	ID4 binder
C[C@H]1CN([C@@H](C)CO)C(=O)CCCn2cc(nn2)CO[C@@H]1CN(C)S(=O)(=O)c1ccc2c(c1)OCCCO2	i	i	i	i
C/C=C(\C)C(=O)O[C@@H]1c2c(ccc3ccc(=O)oc23)OC(C)(C)[C@@H]1OC(C)=O	i	i	i	i
CCOc1ccccc1N1CC(C(=O)Nc2ccc(C(=O)O)cc2)CC1=O (configuration not stated)	i	i	i	i
C[C@@H]1CN([C@@H](C)CO)C(=O)c2cccc(NC(=O)NC3CCCCC3)c2O[C@H]1CN(C)Cc1ccc2c(c1)OCO2	i	i	i	i
Cc1cc(C(=O)Nc2cccc3c2O[C@@H](CN(C)CC2CC2)[C@@H](C)CN([C@H](C)CO)C3=O)n(C)n1	i	i	i	i
C[C@H](CO)N1C[C@H](C)[C@H](CN(C)Cc2ccc(C(F)(F)F)cc2)Oc2ccc(NC(=O)C3CC3)cc2C1=O	i	i	i	i
Cc1noc(C)c1NC(=O)Nc1cccc2c1O[C@@H](CN(C)Cc1ccncc1)[C@H](C)CN([C@H](C)CO)C2=O	i	i	i	i
COC(=O)c1cccc(NC(=O)COc2cc(C)cc(C)c2)c1	i	i	i	i
C[C@H](CO)N1C[C@H](C)[C@H](CN(C)C(=O)Nc2ccc(C(F)(F)F)cc2)Oc2ccc(NS(=O)(=O)c3ccc(F)cc3)cc2C1=O	i	i	i	/
C[C@H]1CN([C@@H](C)CO)C(=O)Cc2cc(NC(=O)CCN3CCOCC3)ccc2O[C@H]1CN(C)S(=O)(=O)c1cn(C)cn1	i	i	i	i
C=C(C)C1=C[C@@]2(C)C(=CC1=O)CC[C@@H](O)[C@@H]2C	i	i	i	/
CCOC(=O)CSc1cc(C)nc(N)n1	i	i	i	i
C[C@@H]1CN([C@@H](C)CO)C(=O)c2cc(NC(=O)c3ccncc3)ccc2O[C@@H](C)CCCCO[C@@H]1CN(C)C(=O)Nc1ccccc1	i	i	i	i
CN(C)C(=O)[C@@]1(Cc2ccccc2CN=[N+]=[N-])N=C(c2ccc(OCCCO)cc2)O[C@H]1c1ccccc1	i	i	i	i
CO[C@H]1O[C@H](CO)[C@@H](OC(=O)Nc2ccccc2)[C@H](OC(=O)Nc2ccccc2)[C@@H]1OC(=O)Nc1ccccc1	i	i	i	i
C[C@H]1CN([C@@H](C)CO)C(=O)c2cccc(NC(=O)Nc3ccc(C(F)(F)F)cc3)c2O[C@H]1CN(C)S(=O)(=O)c1ccc(Cl)cc1	i	i	i	i
C[C@@H]1CN([C@@H](C)CO)C(=O)c2cc(NC(=O)NC3CCCCC3)ccc2O[C@@H](C)CCCCO[C@H]1CN(C)S(=O)(=O)c1ccc(F)cc1	i	i	i	/
CCCCC[C@H](O)CC(=O)CCc1ccc(O)c(OC)c1	i	i	i	/
Cc1nn(CCCNC(=O)C2CCCO2)cc1Br (configuration not stated)	i	i	i	i
C[C@@H]1CCCCO[C@@H](CN(C)S(=O)(=O)c2ccc(F)cc2)[C@@H](C)CN([C@@H](C)CO)C(=O)c2cc(NC(=O)C3CCCCC3)ccc2O1	i	i	i	i
C[C@H](CO)N1C[C@H](C)[C@@H](CN(C)S(=O)(=O)c2ccc(F)cc2)Oc2ccc(NS(=O)(=O)c3ccccc3)cc2CC1=O	i	i	i	i
CC(C)NC(=O)N(C)C[C@H]1Oc2c(NC(=O)C3CCOCC3)cccc2C(=O)N([C@@H](C)CO)C[C@H]1C	i	i	i	i
Cc1noc(C)c1NC(=O)Nc1cccc2c1O[C@H](CN(C)Cc1ccc(-c3ccccc3)cc1)[C@H](C)CN([C@H](C)CO)C2=O	i	i	i	/
COc1cc(C)c2c(=O)cc(-c3ccccc3)oc2c1	i	i	i	i
O=C(C1=C[C@H](c2ccc(Br)cc2)C[C@H](OCc2ccc(CO)cc2)O1)N1CCN(Cc2ccccc2)CC1	i	i	i	i

Full records, quoted from the list:
`C/C=C(\C)C(=O)O[C@@H]1c2c(ccc3ccc(=O)oc23)OC(C)(C)[C@@H]1OC(C)=O` in the list: mut p53 SMM: i; STAT3 binder: i; c-Myc SMM: i; ID4 binder: i
`CCCCC[C@H](O)CC(=O)CCc1ccc(O)c(OC)c1` in the list: mut p53 SMM: i; STAT3 binder: i; c-Myc SMM: i; ID4 binder: /

Continued:
SMILES	mut p53 SMM	STAT3 binder	c-Myc SMM	ID4 binder
C[C@H](CO)N1C[C@H](C)[C@H](CN(C)C(=O)Nc2ccc(C(F)(F)F)cc2)Oc2c(NS(=O)(=O)c3cccs3)cccc2C1=O	i	i	i	i
C[C@H]1CN([C@@H](C)CO)C(=O)c2cc(NC(=O)C3CC3)ccc2O[C@H]1CN(C)C(=O)Nc1ccccc1	i	i	i	i
C[C@@H]1CN([C@H](C)CO)C(=O)Cc2cc(NC(=O)Nc3cccc4ccccc34)ccc2O[C@@H]1CN(C)C(=O)Nc1cccc2ccccc12	i	i	+	i
C[C@@H]1CCCCO[C@@H](CN(C)C)[C@H](C)CN([C@H](C)CO)C(=O)c2cc(NC(=O)NC3CCCCC3)ccc2O1	i	i	i	/
C[C@H]1CCCCO[C@H](CN(C)S(=O)(=O)c2cn(C)cn2)[C@@H](C)CN([C@@H](C)CO)C(=O)c2cc(N(C)C)ccc2O1	i	i	i	/
Cc1noc(C)c1NC(=O)Nc1ccc2c(c1)C(=O)N([C@H](C)CO)C[C@H](C)[C@@H](CN(C)C(=O)NC(C)C)OCCCC[C@H](C)O2	i	i	i	i
C[C@H]1CN([C@@H](C)CO)C(=O)c2cc(N(C)C)ccc2O[C@@H]1CN(C)C(=O)Nc1ccc(F)cc1	i	i	i	i
COc1ccc(NC(=O)CNC(=O)c2ccc(F)cc2)cc1	i	i	i	i
C[C@H](CO)N1C[C@H](C)[C@H](CN(C)C(=O)Nc2cccc3ccccc23)Oc2c(NS(=O)(=O)c3ccccc3)cccc2C1=O	i	i	i	i
O=C(CCc1ccc(O)cc1)c1c(O)cc(O[C@@H]2O[C@H](CO)[C@@H](O)[C@H](O)[C@H]2O)cc1O	i	i	i	i
COc1ccc(S(=O)(=O)N(C)C[C@H]2Oc3ccc(NS(=O)(=O)c4cn(C)cn4)cc3C(=O)N([C@H](C)CO)C[C@@H]2C)cc1	i	i	i	i
COCCOC(=O)N1C(=O)[C@@]2(c3cc(C#CCNC(N)=O)ccc31)[C@H](C(N)=O)[C@H]1C(=O)O[C@H](c3ccccc3)[C@H](c3ccccc3)N1[C@@H]2c1ccccc1OCCO	i	i	i	i
COc1cccc(NC(=O)c2c(NC(=O)c3cccnc3)sc3c2CCC3)c1	i	i	i	i
C[C@H]1CN([C@@H](C)CO)C(=O)c2cc(NS(=O)(=O)c3cn(C)cn3)ccc2O[C@H]1CN(C)C	i	i	i	i
Cc1noc(C)c1S(=O)(=O)N(C)C[C@H]1Oc2ccc(NS(=O)(=O)c3cn(C)cn3)cc2CC(=O)N([C@@H](C)CO)C[C@@H]1C	i	i	i	i
C[C@H]1CCCCO[C@H](CN(C)S(=O)(=O)c2cccs2)[C@@H](C)CN([C@@H](C)CO)C(=O)c2cc(N(C)C)ccc2O1	i	i	i	i
CC(C)NC(=O)Nc1cccc2c1O[C@H](CN(C)Cc1ccccc1)[C@H](C)CN([C@H](C)CO)C2=O	i	i	i	i
NC(=O)c1ccccc1NC(=O)COc1cccc2ccccc12	i	i	i	i
C[C@@H]1CN([C@@H](C)CO)C(=O)c2cc(NC(=O)Nc3ccc(C(F)(F)F)cc3)ccc2O[C@H]1CN(C)C	i	i	i	i
COc1ccc(CN(C)C[C@@H]2Oc3ccc(NC(=O)Cc4cn(C)c5ccccc45)cc3C(=O)N([C@H](C)CO)C[C@H]2C)cc1	i	i	i	i
C[C@H]1CN([C@@H](C)CO)C(=O)c2cc(NC(=O)NC3CCCCC3)ccc2O[C@@H]1CN(C)C(=O)Nc1ccccc1	i	i	i	i
C[C@H]1CCCCO[C@H](CN(C)C(=O)CCCN(C)C)[C@@H](C)CN([C@@H](C)CO)C(=O)c2cc(NS(=O)(=O)c3cccs3)ccc2O1	i	i	i	i
C[C@@H]1CN([C@@H](C)CO)C(=O)c2cccc(NS(=O)(=O)c3ccc(Cl)cc3)c2O[C@@H]1CN(C)Cc1ccncc1	i	i	i	i
C[C@@H]1CN([C@H](C)CO)C(=O)c2cc(NC(=O)Nc3ccc4c(c3)OCO4)ccc2O[C@H]1CN(C)C	i	i	i	i
COc1cccc(OC)c1C(=O)N(Cc1nc(-c2ccc(Cl)cc2)no1)C(C)C	i	i	i	i

Next compounds.
SMILES	mut p53 SMM	STAT3 binder	c-Myc SMM	ID4 binder
CCCCCCC/C=C/C(=O)CCc1ccc(O)c(OC)c1	i	i	i	i
C[C@@H]1CN([C@H](C)CO)C(=O)c2cccc(NC(=O)C3CCOCC3)c2O[C@@H]1CN(C)Cc1ccc(Cl)c(Cl)c1	i	i	i	i
COc1ccc(S(=O)(=O)Nc2ccc3c(c2)C(=O)N([C@H](C)CO)C[C@H](C)[C@H](CN(C)C(=O)Nc2ccccc2)O3)cc1	i	i	i	/
O=C(O)CNC(=O)CN1C(=O)c2ccccc2C1=O	i	i	i	i
CC(C)NC(=O)Nc1ccc2c(c1)CC(=O)N([C@@H](C)CO)C[C@@H](C)[C@@H](CN(C)C)O2	i	i	i	i
CNC[C@@H]1Oc2ccc(NC(=O)C3CC3)cc2CC(=O)N([C@@H](C)CO)C[C@@H]1C	i	i	i	i
COC(=O)[C@]1(Cc2ccccc2)N=C(c2ccc(OCCCO)cc2)O[C@@H]1c1ccccc1N=[N+]=[N-]	+	i	i	/
COc1ccc(-c2cc(=O)c3c(O)c(OC)c(O)c(OC)c3o2)cc1	i	i	i	/
C[C@H]1CN([C@@H](C)CO)C(=O)c2cccc(NC(=O)c3cnccn3)c2O[C@@H]1CN(C)CC1CC1	i	i	i	i
CN(C)CCCNc1oc(-c2ccccc2F)nc1C#N	i	i	+	i
COc1cc(C(=O)O)cc(OC)c1O	i	i	i	i
COc1ccc(S(=O)(=O)N(C)C[C@@H]2Oc3ccc(NC(=O)CCN4CCOCC4)cc3C(=O)N([C@H](C)CO)C[C@@H]2C)cc1	i	i	i	i
COc1ccc(C(=O)N2CCNC(=O)C2CC(=O)Nc2ccc(C)cc2)cc1 (configuration not stated)	i	i	i	i
C[C@@H]1CN([C@H](C)CO)C(=O)Cc2cc(NS(=O)(=O)c3ccc(Cl)cc3)ccc2O[C@@H]1CN(C)C(=O)NC1CCCCC1	i	i	i	i
Cc1cc(C)nc(Nc2n[nH]c(CSc3nc4ccccc4s3)n2)n1	i	i	i	i
C[C@@H]1CN([C@@H](C)CO)C(=O)c2cccc(NC(=O)c3ccncc3)c2O[C@H]1CN(C)CC1CC1	i	i	i	i
CC(Oc1ccc(-c2ccccc2)cc1)C(=O)Nc1ccccc1[N+](=O)[O-] (configuration not stated)	i	i	i	i
O=C(COc1ccccc1C(=O)Nc1ccccc1)Nc1ccc([N+](=O)[O-])cc1	i	i	i	i
O=Cc1c2[nH]c3ccccc3c2cc2[nH]c3ccccc3c12	i	i	i	i
C[C@H]1CN([C@@H](C)CO)C(=O)c2cc(NC(=O)Cc3ccccc3)ccc2O[C@@H]1CN(C)C(=O)NC1CCCCC1	i	i	i	i
COc1ccc(CN(C)C[C@@H]2Oc3ccc(NS(=O)(=O)c4ccc(OC)cc4)cc3CC(=O)N([C@H](C)CO)C[C@@H]2C)cc1	i	i	i	i
C[C@@H]1CN([C@H](C)CO)C(=O)c2cc(NS(C)(=O)=O)ccc2O[C@@H]1CN(C)C(=O)Nc1ccc2c(c1)OCO2	i	i	i	i
Cc1cc(C(F)(F)F)nn1CCCNC(=O)c1cccs1	i	i	i	i
C[C@H]1CN([C@@H](C)CO)C(=O)c2cc(NC(=O)c3ccncc3)ccc2O[C@H]1CN(C)C	i	i	i	i
Cc1noc(C)c1NC(=O)N(C)C[C@H]1Oc2ccc(NS(=O)(=O)c3ccccc3)cc2C(=O)N([C@@H](C)CO)C[C@H]1C	i	i	i	/
COc1ccccc1NC(=O)COc1ccc(C(=O)O)cc1OC	i	i	i	i
CC(C)NC(=O)Nc1ccc2c(c1)C(=O)N([C@H](C)CO)C[C@@H](C)[C@H](CN(C)Cc1ccc(Cl)c(Cl)c1)O2	i	i	i	/
Cc1ccc(S(=O)(=O)Nc2ccc3c(c2)C(=O)N([C@@H](C)CO)C[C@@H](C)[C@H](CN(C)C(=O)Nc2ccc(F)cc2)OCCCC[C@@H](C)O3)cc1	i	i	i	/

Reformatted in CSV form: entries from further up
structure,mut p53 SMM,STAT3 binder,c-Myc SMM,ID4 binder
COc1ccc(C(=O)N2CCNC(=O)C2CC(=O)Nc2ccc(C)cc2)cc1 (configuration not stated),i,i,i,i
C[C@@H]1CN([C@H](C)CO)C(=O)Cc2cc(NS(=O)(=O)c3ccc(Cl)cc3)ccc2O[C@@H]1CN(C)C(=O)NC1CCCCC1,i,i,i,i
Cc1cc(C)nc(Nc2n[nH]c(CSc3nc4ccccc4s3)n2)n1,i,i,i,i
C[C@@H]1CN([C@@H](C)CO)C(=O)c2cccc(NC(=O)c3ccncc3)c2O[C@H]1CN(C)CC1CC1,i,i,i,i
